Bfl-1 A1 inh = inhibitors of the anti-apoptotic protein A1, read as caspase activation. 330,000 compounds, 0.066% hits. MEF A1-2A-BIM cells, Caspase-Glo 3/7 luminescence, 3 h; percent of clofoctol response, vehicle zero. caspase activation, % (concentration not given with the values);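 active means over half of replicate activation scores above 10%, or exactly half above 10 with the replicate mean above 10; inconclusive means replicate mean below 10 yet half the replicates above 10; inactive means over half of replicates below 10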;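 further: wells of about 30 µL received 50 nL stock; many hits fall short of the cut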
T cruzi repl = T. cruzi replication inhibition. T. cruzi beta-gal in NIH3T3, luminescence, 90 h. inhibition, % (concentration not given with the values). 300,000 compounds, 1.4% hits. AID 1885;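 active means mean inhibition across valid replicates above about 55%, limit read from the data; inconclusive means mean below that limit but half or more replicates reach it; inactive means mean below it, under half of replicates reach it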;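 further: signal also drops with host cell toxicity which is not excluded here; 0% = plate median of DMSO wells and 100% = zero luminescence signal; higher percent means less beta-gal luminescence so fewer parasites; stock transfer was 50 nL into about 50 µL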
ALR inh = human ALR oxidase inhibition via reduced H2O2 | P55789 | purified ALR, DTT oxidation, H2O2 HRP-luminol luminescence | inhibition, % (concentration not given with the values) | 290,000 compounds, 3.8% hits | AID 485317;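 active means mean and each replicate at 75% or more; inconclusive means only one of the two met; inactive means neither met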;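 further: stock transfer was 7.5 nL into about 7.5 µL; 0% = neutral wells and 100% = wells with inactivated enzyme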
Target sequence (P55789 whole entry, looked up): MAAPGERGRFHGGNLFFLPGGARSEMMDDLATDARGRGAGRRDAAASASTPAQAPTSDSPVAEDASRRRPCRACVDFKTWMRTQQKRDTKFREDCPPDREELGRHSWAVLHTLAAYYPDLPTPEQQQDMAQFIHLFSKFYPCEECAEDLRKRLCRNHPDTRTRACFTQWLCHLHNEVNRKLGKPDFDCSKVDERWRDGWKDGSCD
Calb FLC = affects C. albicans growth with fluconazole; C. albicans CaCi-2 (fluconazole-resistant clinical isolate) + fluconazole, Alamar Blue growth, 48 h; growth inhibition, % (no concentration beside the values); 300,000 compounds, 0.57% hits;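 active means most replicates above 75%; inconclusive means exactly half above 75%; inactive means most below 75%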;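 further: all wells also contain fluconazole at 8 µg/ml as a sub-toxic cotreatment; 0% = median of DMSO wells and 100% = median of geldanamycin control wells; wells of about 8 µL received 7.5 nL stock; the first replicate is given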
Ecoli rRNA inh = inhibitors of bacterial rRNA selective over humanized ribosomes; E. coli WT GFP vs humanized-ribosome RFP mutants, fluorescence, 24 h; active compounds read low; DMSO median 0, no signal -100; GFP signal change (wild-type ribosome), % (concentration not given with the values); 350,000 compounds, 1.6% hits;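 active means significant combined selectivity score with lowered wild-type GFP, culture density cut under 30%, mutant RFP and density less affected; inactive means any of these conditions unmet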; further: one replicate is shown; some compounds called inactive have numbers as strong as hits
LANA-H2A inh = blocks KSHV LANA binding to histone H2A/H2B; Q9QR71; 320,000 compounds, 0.6% hits; inhibition, % (test concentration not listed); AID 2629; cell-free LANA-H2A/H2B peptide, fluorescence polarization; in the data active means inhibition mostly above about 10%, no sharp cut-off; inactive means mostly below about 6.7%;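 further: stock transfer was 7.5 nL into about 10 µL; 0% = median of vehicle wells and 100% = median of positive control wells; one replicate is shown; the record names a cut of 25% in any replicate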
Beta2AR agonist = human beta-2 adrenergic receptor agonism by FAP; 340,000 compounds, 0.43% hits; response, % (concentration not given with the values); P07550; Am2.2-beta2AR cells, FAP receptor internalization, flow cytometry; reference of the scale not given here;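 active means response above a set limit, near 3 SD of response in nonfluorescent compounds, cut at about 42% in these data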;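 further: stock transfer was 100 nL into about 11 µL; a reference agonist was the positive control; negative values mostly stem from fluorescent compounds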
Target sequence (P07550 whole entry, looked up): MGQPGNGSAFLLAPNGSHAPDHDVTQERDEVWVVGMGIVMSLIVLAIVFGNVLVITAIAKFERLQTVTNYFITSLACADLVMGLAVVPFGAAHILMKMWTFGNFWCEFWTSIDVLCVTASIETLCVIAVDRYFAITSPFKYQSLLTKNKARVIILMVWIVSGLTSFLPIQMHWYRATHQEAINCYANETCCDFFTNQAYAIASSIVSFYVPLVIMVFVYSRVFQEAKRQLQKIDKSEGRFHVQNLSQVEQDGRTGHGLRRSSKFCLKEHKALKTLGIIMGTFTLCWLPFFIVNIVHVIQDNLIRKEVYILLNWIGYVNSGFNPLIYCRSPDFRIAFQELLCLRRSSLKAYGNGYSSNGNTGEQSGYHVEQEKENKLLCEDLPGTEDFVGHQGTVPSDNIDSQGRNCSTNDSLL
Beta cell apopt = beta cell apoptosis inhibition | protection from apoptosis, % (concentration not given with the values) | INS-1E cytokine-induced death, ATP luminescence, 48 h; percent of positive-control rescue, neutral wells zero | 300,000 compounds, 0.8% hits;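 active means all replicates at 75% or more, or half of them and the mean; inconclusive means half reach 75% but not the mean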;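 further: 0% = cytokine-treated negative control wells and 100% = positive control rescue; higher means more ATP so stronger rescue from cytokine killing; wells of about 40 µL received 100 nL stock; the first replicate is given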
Ecoli rRNA inh OD600 = further read-out of Ecoli rRNA inh, marked with its call; OD600 change, %; measured here: OD600 growth;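 optical density of the mix in the first replicate; 0 = DMSO median and -100 = no signal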
Ecoli rRNA inh RFP = second read-out of Ecoli rRNA inh, no call of its own (marks repeat the call); RFP signal change, %; measured here: RFP humanized mutant strains;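 first replicate; 0 = DMSO median and -100 = no signal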
An asterisk follows results filed as active; u = inconclusive; x = no result given. These rows are one share of the data; the hit share may differ from the screen's.

structure	Bfl-1 A1 inh	T cruzi repl	ALR inh	Calb FLC	Ecoli rRNA inh	Ecoli rRNA inh OD600	Ecoli rRNA inh RFP	LANA-H2A inh	Beta2AR agonist	Beta cell apopt
O=C(CN1CCN(C(=O)CNC(=O)c2ccc3c(c2)OCO3)CC1)Nc1cccc(F)c1	-1.4	x	-1	x	4	0	-2.9	-9.4	-5	-3
CC(C)=CC(=O)N1CCCc2ccccc21	-0.5	1	2	-5	x	x	x	-0.5	-1	-4
Cc1nnc(C)c2c(C)n(Cc3ccc4c(c3)OCO4)c(C)c12	-0.7	30	-4	6	x	x	x	0.9	2	x
COc1ccc(NC(=O)c2ccc3c(c2)OCO3)cc1[N+](=O)[O-]	-2.1	-6	-4	-13	13	12	-0.6	-1.0	-2	1
O=C(CCc1nc(-c2ccccc2Cl)no1)NCC1CCCO1 (stereo not drawn)	-0.2	6	4	3	3	1	0.1	-1.6	-2	0
O=C(Nc1ccccc1N1CCCC1)c1cccc(-c2cc3ccccc3oc2=O)c1	-5.6	12	3	7	x	x	x	-4.1	-9	6
Cc1nc2nc(SCC(=O)Nc3cccc(F)c3)[nH]c2cc1Br	-0.4	1	-13	-6	-44	-46	4.7	9.7	2	15
Cc1nn(-c2ccccc2)cc1/C=N/O	0.4	-10	29	u	x	x	x	-0.6	-1	-2
Cc1ccc(C)c(NC(=O)C(OC(=O)c2ccc(C)s2)c2ccccc2)c1 (stereo not drawn)	0.0	0	x	-2	x	x	x	x	-10	3
Cc1cccc(NC(=O)CNC(=O)C(NC(=O)Cc2ccccc2)C(C)C)c1C (stereo not drawn)	-0.3	x	x	x	9	9	-0.3	1.3	10	-4
C=CCn1c(SCC(=O)Nc2ccc(N3CCOCC3)cc2)nc2ccccc2c1=O	-0.9	27	-16	-2	12	13	5.6	0.2	0	-2
COc1ccccc1CNC(=O)CNC(=O)c1sc2ccccc2c1Cl	1.1	16	1	10	-14	-15	-2.9	-4.9	-3	x
Cc1nc(NCc2ccco2)c2c(C)c(C)sc2n1	1.6	-44	97*	5	x	x	x	0.2	3	28
O=C(NCc1ccco1)c1ccccc1NC(=O)C1CC(=O)N(c2ccc(Cl)cc2)C1 (stereo not drawn)	0.8	3	-4	-12	x	x	x	-1.8	-3	-2
CCCCN(C(=O)c1ccc(OC)c([N+](=O)[O-])c1)c1c(N)n(CCC)c(=O)[nH]c1=O	0.5	-7	-1	-5	9	17	-2.7	2.5	4	-4
CCOCCCNc1nc2c(C)cccn2c(=O)c1/C=C1\SC(=S)N(CC(C)C)C1=O	0.8	13	-1	-2	x	x	x	-0.9	x	-5
COc1ccc(/C=N/NC(=O)c2cccc(NC(C)=O)c2)c(C(=O)O)c1OC	0.0	-14	0	4	8	11	-1.5	-1.2	5	-4
Cc1onc(C(=O)NN)c1C(=O)Nc1ncc(C(F)(F)F)cc1Cl	-0.3	2	8	4	16	12	1.3	-3.3	2	-11
COc1ccc(NC(=O)CCCc2ccccc2)cc1OC	-0.5	1	-18	-2	10	1	0.1	-3.3	2	-6
CCOc1c(C)cc2[nH]c(CCC(=O)O)nc2c1C	0.2	-15	-1	9	x	x	x	-4.2	-11	-4
COc1ccc(C(C(=O)NC2CCCC2)N(C(=O)c2ccco2)c2cc3c(cc2C(C)=O)OCO3)cc1 (stereo not drawn)	0.4	9	x	2	-1	-3	-3.4	2.4	-3	0
C=CCn1nnc2sc3c(c2c1=O)CCC(C)C3 (stereo not drawn)	0.6	-3	-13	-1	x	x	x	-8.2	-9	4
O=C(Oc1ccc(Cl)c2cccnc12)N1CCCCC1	0.3	-17	2	-17	x	x	x	-2.4	1	8
CCN(C(=O)CN1CCN(c2ccccc2F)CC1)c1c(N)n(Cc2ccccc2)c(=O)[nH]c1=O	0.0	-7	-13	3	6	0	0.0	-3.1	4	-4
CC(C)C(c1nnnn1Cc1ccc(F)cc1)N1CCN(Cc2ccc3c(c2)OCO3)CC1 (stereo not drawn)	-0.2	29	-9	-2	x	x	x	2.7	9	29
O=C(/C=C/c1cccs1)NCc1cccnc1	0.5	-10	-2	-19	x	x	x	1.5	-7	-1
Clc1ccc(-c2nnnn2-c2ccc(Cl)c(Cl)c2)cc1Cl	0.6	x	47	26	x	x	x	1.9	-2	11
COc1ccc(CCNC(=O)C2=CC=CN3CCS(=O)(=O)N=C23)cc1	-0.3	x	x	x	10	14	-1.7	-1.0	-9	-4
Cc1ccc(N(CCC#N)C(=O)COC(=O)C2CCN(c3ccc(C(F)(F)F)cn3)CC2)cc1	0.1	1	-6	-6	-1	-11	3.0	-4.8	-2	-1
O=C(CCC(=O)N1CCN(S(=O)(=O)c2ccc(Cl)cc2)CC1)NC1CCCc2ccccc21 (stereo not drawn)	1.3	-8	-28	8	x	x	x	-0.2	25	-3
COc1cc(-c2noc(CCCC(=O)Nc3ccc(C(N)=O)cc3)n2)cc(OC)c1OC	-0.5	-7	-3	5	16	28	4.7	2.7	1	-2
Cc1onc(-c2ccccc2)c1C(N)=O	0.7	1	-8	1	x	x	x	1.7	7	1
CCSc1nnc(NC(=O)CCNC(=O)c2ccccc2Cl)s1	-0.9	x	-1	x	21	12	5.6	-0.3	0	-1
CCOC(=O)C1CCN(c2ccc([N+](=O)[O-])c(C(C)=O)c2)CC1	-0.8	-4	1	0	-12	-7	3.3	-4.2	10	3
Cc1ccc(-n2c(C)cc(C(=O)OCC(=O)N(C)C3CCS(=O)(=O)C3)c2C)cc1 (stereo not drawn)	-0.1	9	1	-8	x	x	x	0.8	-4	-2
O=Cc1cc(Cl)ccc1OCCN1CCC(Cc2ccccc2)CC1	0.2	31	-3	12	-49	-43	-12	-4.8	4	1
CC(C)(C)NC(=O)c1ccc2c(c1)CCO2	-0.2	2	-11	-3	8	2	0.7	1.4	4	-1
Cc1ccc(OCCNC(=O)C(=O)NCc2ccco2)cc1	0.2	-47	-1	12	12	10	2.7	-1.1	-9	2
O=C(COC(=O)c1ccc[nH]c1=O)NC1CCCCC1	-0.5	-2	-7	-2	5	-4	-4.3	-3.4	-4	-8
O=C(COc1ccc(S(=O)(=O)N2CCc3ccccc32)cc1Cl)NCc1ccccn1	-0.2	10	-4	4	x	x	x	-1.5	10	-1
CN(Cc1c(F)cccc1Cl)C(=O)c1ccc(COc2ccccc2)cc1	-0.4	2	0	13	-10	-59	1.8	-10	13	2
O=C(NCCN1C(=O)C2C3C=CC(C3)C2C1=O)Nc1ccccc1O (stereo not drawn)	-1.4	1	64	17	8	7	-1.3	4.9	-4	-7
O=C(CN1CCN(c2ccccc2Cl)CC1)NC1CCCc2ccccc21 (stereo not drawn)	-0.1	19	-7	-16	x	x	x	1.2	-6	2
Cc1ccc(C(=O)Nc2nncs2)cc1S(=O)(=O)N1CCOCC1	0.7	-10	-1	-2	x	x	x	5.7	6	-4
CCN(CC)c1ccc(C(=O)OCC(=O)N(C(C)C)C(C)C)cc1	0.5	16	-6	-3	1	8	-0.5	6.7	10	-5
Cc1ccc(NC(=S)N2C3CCCC2CC(NC(=O)C2CC2)C3)cc1C (stereo not drawn)	0.3	3	-3	-8	1	3	-2.0	6.6	-3	x
CCC(=O)N1N=C(c2c(-c3ccccc3)c3cc(Cl)ccc3[nH]c2=O)CC1c1ccco1 (stereo not drawn)	0.7	25	2	11	x	x	x	1.7	1	-9
Cc1cc(C)c(C)c(S(=O)(=O)Nc2ccc3cn[nH]c3c2)c1C	0.5	x	0	x	-1	-17	11	1.3	-2	-11
Nc1nc(-c2ccccn2)nc(N)c1Cc1c(F)cccc1Cl	-0.2	57*	-4	u	-53	-82	-15	-1.4	-10	96*
O=C(O)CCN1C(=O)CC(N2C(=O)/C(=C/c3ccc(Cl)cc3)SC2=S)C1=O (stereo not drawn)	0.3	4	98*	0	1	-6	2.0	4.3	-11	6

Next part:
structure	Bfl-1 A1 inh	T cruzi repl	ALR inh	Calb FLC	Ecoli rRNA inh	Ecoli rRNA inh OD600	Ecoli rRNA inh RFP	LANA-H2A inh	Beta2AR agonist	Beta cell apopt
Cc1ccc2c(CSc3nnc(C4CC4)n3N)cc(=O)oc2c1C	-0.4	1	x	-9	x	x	x	4.4	-18	2
CCCOc1ccc(-c2c(=O)n(OCC(=O)OCC)c3ccccc3[n+]2[O-])cc1	-0.9	-7	1	12	8	3	-0.5	2.7	7	-4
CCOC(=O)Cc1csc(NC(=O)c2ccc(S(=O)(=O)N3CCCC3)cc2)n1	-0.7	-4	0	-10	-12	-9	2.3	-4.4	8	0
O=C(COC(=O)c1cc(=O)[nH]c2ccccc12)NC(=O)NC1CCCCC1	-0.3	-7	-2	13	x	x	x	2.9	0	-4
Cc1nc2ccc(S(=O)(=O)N(C)CC(=O)N3CCc4ccccc4C3)cc2s1	0.3	4	x	0	x	x	x	-1.9	-13	1
O=C(Nc1ccc([N+](=O)[O-])cc1)c1cc2ccccc2nc1Cl	0.7	30	x	4	-10	-3	0.0	-1.3	4	19
CC(=O)c1cc(C#N)c(SCC(=O)C(C)(C)C)nc1C	0.4	13	x	0	x	x	x	-1.1	9	3
O=C(c1ccc(Br)cc1)C(CN1CCOCC1)c1ccccc1 (stereo not drawn)	0.3	19	12	1	-68	-81	-23	-2.7	21	5
CCCCCCOC(=O)c1ccc(OC(=O)c2cccnc2)cc1	-0.5	8	-1	-18	x	x	x	-0.2	-1	-1
